PINK1 modulator: A Quantitative High throughput Screen to Identify Chemical Modulators of PINK1 Expression. PINK1 immunofluorescence, high-content cytometry, 24 h. Potency, µM (highest dose often 76.6 µM), for the others: top-dose activation (PINK1 increase), actives largely listed as activators. 410,000 compounds, 0.2% hits; active = well fitted activation curve with a large enough effect; inconclusive = small, poorly fitted or top-dose-only effect; inactive = flat fitted curve, though single readings scatter; cell line not stated here;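 also: potency is read from the fitted curve at half-maximal effect; % of control where 0% means no effect; nearly all actives have a fitted effect of over 65% in size; a mitochondrial uncoupler was the plate control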
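Stable cell line, 250 cells/well, 12 h attachment; compounds pinned at 5 concentrations, 24 h; CCCP control. Fixed with nuclear dye, primary antibodies 12 h at 10 degrees C, secondary plus cell stain; laser-scanning cytometer read.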
D2 agonist: Beta-Arrestin HTS for Positive Allosteric Modulators of the Human D2 Dopamine Receptor: Agonists | DiscoveRx PathHunter D2 beta-arrestin, luminescence, 90 min; 100% = 57 uM dopamine signal | AID 624465, 2012 | activation, % (concentration not given with the values) | 360,000 compounds, 0.084% hits; in the data active = activation above about 40%; inconclusive = about 15% to 40%; inactive = below about 15%; also: the text of the record calls up to 30% inactive
Target sequence (P14416 whole entry, looked up): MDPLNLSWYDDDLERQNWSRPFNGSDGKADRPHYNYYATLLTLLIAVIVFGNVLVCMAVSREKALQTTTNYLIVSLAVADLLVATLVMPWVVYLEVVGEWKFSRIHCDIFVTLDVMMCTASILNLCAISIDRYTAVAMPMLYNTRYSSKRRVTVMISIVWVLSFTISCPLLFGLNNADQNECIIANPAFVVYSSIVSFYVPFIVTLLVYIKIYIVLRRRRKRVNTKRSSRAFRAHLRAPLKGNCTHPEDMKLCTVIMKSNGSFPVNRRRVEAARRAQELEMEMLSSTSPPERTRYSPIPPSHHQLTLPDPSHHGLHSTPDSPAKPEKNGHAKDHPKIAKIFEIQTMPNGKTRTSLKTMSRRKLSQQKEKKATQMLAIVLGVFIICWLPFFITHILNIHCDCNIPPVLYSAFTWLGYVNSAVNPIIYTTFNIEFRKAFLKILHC
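Agonist mode: compounds alone added to overnight-plated D2 PathHunter cells for 90 min at 37 C, with 57 uM final dopamine (EC100) defining full response. Beta-arrestin recruitment detected by chemiluminescent reagent, read after 1 h at ambient temperature.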
gsp antag: qHTS for Antagonists of gsp, the Etiologic Mutation Responsible for Fibrous Dysplasia/McCune-Albright Syndrome: qHTS; gsp-mutant cells, cAMP HTRF, 30 min; control for the full effect not named in the record; Potency, µM (top dose mostly 76.9 µM), without a hit: at the highest dose activity change, negative = inhibition, usual class: inhibitors; 340,000 compounds, 0.4% hits; active = falling curve of any shape with a large fitted effect; inconclusive = falling curve, mostly with a smaller effect; inactive = flat or rising curve; cell line not stated here;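 also: intracellular cAMP measured with PDE inhibitor Ro 20-1724 present during compound exposure; potency is read from the fitted curve at half-maximal effect; % is scaled to controls: 0 for no effect and ±100 for the full control effect; nearly all actives have a fitted effect of over 65% in size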
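HTRF cAMP measurement after 30 min RT detection following 30 min, 37C compound treatment alongside […] (added as 300 uM solution) in G418-selected cells seeded at 2000/well and grown 16–24 h.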
ClpP mod: qHTS Assay for Activators of ClpP; 340,000 compounds, 1.9% hits; purified B. subtilis ClpP, FRET peptide cleavage, 20 min; Potency, µM (doses to about 57.5 µM), without a hit: at the highest dose activity change, negative = active; AID 651965, 2013; ATP-dependent Clp protease proteolytic subunit (Bacillus subtilis (strain 168)), P80244; active = well fitted falling curve with a large enough effect; inconclusive = small, poorly fitted or top-dose-only effect; inactive = no such curve, though single readings can be large or run the other way; also: potency is read from the fitted curve at half-maximal effect; the source files actives as falling curves though it sought activators and does not explain the sign; nearly all actives have a fitted effect of over 65% in size; many hits overshoot -100%
Target sequence (P80244 whole entry, looked up): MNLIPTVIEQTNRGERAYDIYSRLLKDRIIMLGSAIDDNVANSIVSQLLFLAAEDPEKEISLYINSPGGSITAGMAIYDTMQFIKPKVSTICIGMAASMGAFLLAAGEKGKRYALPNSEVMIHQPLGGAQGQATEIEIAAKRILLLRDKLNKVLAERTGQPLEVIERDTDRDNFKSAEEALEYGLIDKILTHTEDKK
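Purified B. subtilis ClpP, 10 microg/mL final in Tris/HCl pH8 with KCl, BSA, glycerol and Tween-20, cleaved an Abz/nitrotyrosine-quenched decapeptide. Fluorescence (ex 320, em 430) was read at 0 and 20 min at room temperature. Delta was normalized to 5.8 microM ADEP and DMSO/no-enzyme controls.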
Menin MLL FP FL: qHTS Assay for Inhibitors Targeting the Menin-MLL Interaction in MLL Related Leukemias: Competition With Fluorescein Labeled MLL-derived Peptide; 290,000 tested, under 10 active; Fluorescence polarization, fluorescein-MLL peptide displacement from menin; AID 1766, 2009; FP activity change, % at 61.4 µM; inconclusive = falling polarisation curve, or a change in total fluorescence; inactive = total fluorescence flat and polarisation flat or rising; no compound was filed as active; the % refers to the polarisation; negative = inhibition;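 also: % of control where 0% means no effect; inhibitors lower the polarisation; unlabelled MLL peptide was the positive control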
gsp agonist: qHTS for Agonist of gsp, the Etiologic Mutation Responsible for Fibrous Dysplasia/McCune-Albright Syndrome: qHTS; Potency, µM (series often up to 76.9 µM), for the others: top-dose activation (cAMP increase), actives largely listed as activators; gsp mutant cells, cAMP HTRF, 30 min; control for the full effect not named in the record; 340,000 compounds, 0.13% hits; active = well fitted activation curve with a large enough effect; inconclusive = small, poorly fitted or top-dose-only effect, or another doubt; inactive = no such curve, though single readings can be large or run the other way; cell line not stated here;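 also: phosphodiesterase inhibitor Ro 20-1724 added with compounds to block cAMP breakdown; potency is read from the fitted curve at half-maximal effect; nearly all actives have a fitted effect of over 60% in size; about a fifth of the inactives were tested at one dose only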
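Cells stably selected in G418 were plated at 2000/well, grown 16-24 hr, then given compounds in DMSO with the PDE inhibitor […] (300 uM solution added) for 30 min at 37C; cAMP was read by HTRF.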
Sfp PPTase inh: qHTS Assay for Inhibitors of Bacillus subtilis Sfp phosphopantetheinyl transferase (PPTase); Biochemical Sfp PPTase activity, qHTS; 310,000 compounds, 3.5% hits; Potency, µM, for the others: max response, negative = inhibition, most hits filed as inhibitors; active = well fitted inhibition curve with a large enough effect; inconclusive = small, poorly fitted or top-dose-only effect, or another doubt; inactive = no such curve, though single readings can be large or run the other way;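 also: the enzyme is Sfp with the accession as filed and its product quenches rhodamine fluorescence; potency is read from the fitted curve at half-maximal effect; 0% = enzyme reaction without inhibitor and -100% = no enzyme wells; top concentration of the series not given in the record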
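Buffer: 50 mM Hepes-Na pH 7.6, 10 mM MgCl2, 0.01% Nonidet P-40, 0.01% BSA. Enzyme 15 nM, pre-exposed to compound 15 min; substrates then added and fluorescence change tracked over 30 min.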
* = called active by the depositor; ? = inconclusive; nt = no result given; & = joins results of further samples; ! = repeats disagree; [ ] = remark or other dose.

SMILES	PINK1 modulator	D2 agonist	gsp antag	ClpP mod	Menin MLL FP FL	gsp agonist	Sfp PPTase inh
O=C(CCn1c(=O)oc2ccccc21)NCc1ccco1	-0.9%	-1.4	13%	-1.7%	0.1	-36%[inhibitor]	17%
CCc1ccc(N2NC(=O)/C(=C/C=C/c3ccco3)C2=O)cc1	-0.6%	1.1	-9%	?	-2.8	6%	4%
Cn1c(=O)c2[nH]cnc2n(C)c1=O	1.6%&-0.4%	-3.7	?	1.3%&-2.5%	0.6	nt	56µM*!
CCC1CN1P(=S)(N1CC1CC)N1CC1CC (configuration not stated)	-0.1%	-3.7	8%	-0.5%	nt	-4%[15.4 µM]	nt
CCC1(C)CN(S(=O)(=O)OCC(Cl)(Cl)Cl)C(=O)N1 (configuration not stated)	0.8%	2.4	10%	-0.1%	2.7	nt	19%
O=C(Cc1cccs1)N1Cc2ccccc2-n2nncc2C1	2.0%	-8.2	nt	-0.4%	nt	29%	nt
CCOCN(C(=O)CCl)c1c(C)cccc1CC	-0.4%&1.0%	-5.4	5%	nt	-2.7	24%[15.4 µM]	13%
COC(=O)C1=C(c2ccccc2OCc2ccccc2)C[C@@H]2CC[C@H]1N2C(=O)NCCCOC(C)C	0.6%	2.5	-8%	0.5%	nt	-1%	nt
COc1ccc(N=Cc2c(O)n(C)c(=O)n(C)c2=O)cc1	0.0%	2.7	5%	-26%	3.1	?	13%
CCOC(=O)c1cc2c(cn1)[nH]c1ccccc12	0.4%	-2.7	3%	4.6%	7.5	nt	-17%&-19%&-8%
CN(CCOc1ccc(C=C2C(=O)NC(=O)NC2=O)cc1)c1ccccn1	2.3%	-5.1	-1%	-4.3%	-0.1	-10%	79µM*
CCN1CCN(Cc2cc(OC)c(OC)cc2[N+](=O)[O-])CC1	3.2%[38.3 µM]	0.9	6%	-5.4%	6.0	8%	-9%
CN(C)C(=O)Oc1cccc(NC(=O)N2CCOCC2)c1	3.3%	-2.1	11%	-0.4%	-0.2	-2%	2%
CCOC(=O)C(O)(c1ccc(N(CC)S(=O)(=O)c2ccc(C)cc2)cc1)C(F)(F)F (configuration not stated)	-2.5%[38.3 µM]	0.7	-22%	-0.8%	-0.1	-5%	8%
O=C(CF)NC(NC(=S)Nc1ccccc1O)C(Cl)(Cl)Cl (configuration not stated)	3.1%	-8.2	8%	-4.2%	2.3	7%	2%
N#Cc1ccc(CN2CCC3(CC2)CCN(C(=O)Oc2ccccc2)CC3)cc1	-0.9%	nt	nt	nt	-0.1	nt	7%
C=CCn1c(O)c(/C(C)=N/N2CCCCCC2)c(=O)[nH]c1=O	4.4%	-5.5	?	0.0%	8.3	5%[15.4 µM]	7%
COc1cc(C2c3cc4c(cc3C(OC(C)=O)[C@H]3COC(=O)C23)OCO4)cc(OC)c1OC (some centres not stated)	6.4%&9.8%	nt	nt	nt	-2.7&-2.0	nt	?
Cc1cccc(-c2nc3ccccc3c(=O)n2-n2cccc2)c1	2.1%	2.8	4%	0.4%	0.3	-11%	4%
CC(=O)c1c(C)[nH]c(C(=O)N2CCC3(CC2)OCCO3)c1C	0.8%	-0.4	2%	-3.5%	0.6	-25%	10%
COC(=O)C1=C(c2ccc(F)cc2OCc2ccccc2)C[C@@H]2CC[C@H]1N2C(=O)NCCOc1ccccc1	0.9%	3.0	-25%	0.3%	nt	-32%[inhibitor]	nt
CC(=O)O/C(=C1\CC2C3CC=C4CC(OC(C)=O)CCC4(C)C3CCC2(C)C1=O)C(F)(F)F (configuration not stated)	?	7.4	-9%	-1.7%	nt	5%	nt
CC/C(=N\N1CCCCC1)c1c(O)[nH]c(=O)[nH]c1=O	-1.5%	-5.9	6%	-1.5%	-1.9	-8%[15.4 µM]	10%
O=C(CCc1ccccc1)N1Cc2cc(-c3ccccc3)ccc2-n2nncc2C1	0.3%	0.6	nt	?	nt	nt	nt
COCCNC(=O)CN1C(=O)CN=C(c2ccccc2)c2ccccc21	-1.0%	-4.6	-8%	nt	1.5	-9%[15.4 µM]	14%
CCOC(=O)C1=Nc2ccccc2/C1=C\c1c(O)n(C)c(=O)n(C)c1=O	1.8%	-4.3	-13%	nt	17	22%[15.4 µM]	-20%
CC(=O)OC1CC(OC2C(O)CC(OC3C(O)CC(OC4CCC5(C)C(CCC6C5CCC5(C)C(C7=CC(=O)OC7)CCC65O)C4)OC3C)OC2C)OC(C)C1OC1OC(CO)C(O)C(O)C1O (configuration not stated)	-6.3%	-2.0	-2%	-2.4%	nt	3%	nt
CC=C(CC)C1(CCC)C(=O)NC(=S)NC1=O	-4.6%	-2.8	0%	0.5%	nt	2%	nt
N#C/C(=C\c1cccc(O)c1)C(=O)O	-0.1%	nt	nt	nt	-4.2	nt	-12%
c1cc(N2CCCC3(CCNCC3)C2)ccn1	-0.1%	nt	nt	nt	-6.7	nt	-19%
COc1ccc(-n2c(SCCN(C)C)nc3ccccc3c2=O)cc1	1.5%	-4.2	1%	nt	0.0	0%[15.4 µM]	-7%
CC(=Nc1ccccc1N)c1c(O)n(C)c(=O)n(C)c1=O	2.1%	-3.8	2%	-1.0%	0.1	-2%	16%
CCOc1ccc(-n2c(O)c(C=NCCCn3ccnc3)c(=O)[nH]c2=O)cc1	0.6%	-3.1	2%	-1.1%	12	-7%	12%
COc1cc(C2c3cc4c(cc3CC3COC(=O)C32)OCO4)cc(OC)c1OC (configuration not stated)	5.0%	7.9	11%	-0.9%	nt	nt	nt
CN1CCN(c2c(C#N)c(C(F)(F)F)nn2C)CC1	2.2%	-5.3	12%	nt	-1.0	-4%[15.4 µM]	0%
Cc1ccc(C)c(N2CCN(S(=O)(=O)c3ccc4c(c3)oc(=O)n4C)CC2)c1	-8.5%[38.3 µM]	-0.4	7%	-1.0%	-2.0	?	10%
CCCCCn1c(=O)c(C(=O)Nc2cc(C)ccn2)c(O)c2ccccc21	-0.8%	7.3	-1%	-7.2%	0.1	17%[15.4 µM]	24%
CCOC(=O)CCN=Cc1c(O)n(-c2ccc(Br)cc2)c(=O)[nH]c1=O	-1.3%	-1.7	12%	0.4%	1.0	-1%	-5%
O=C1Nc2ccccc2C(c2ccccc2)=NC1O (configuration not stated)	-0.6%	-1.7	5%	-0.7%	2.4	14%	-1%
CC(=O)NC(Cc1ccc(N(CCCl)CCCl)cc1)C(=O)O (configuration not stated)	-4.3%[38.3 µM]	-1.1	-3%	-0.2%	0.2	-3%	-1%
CN(C)c1ccc(/C=C/C=C/c2sc3ccccc3[n+]2C)cc1	5µM*	2.3	28µM*	nt	20	-122%[inhibitor]	-9%
CSc1ccc(CN2CCN(C(=O)COc3cccc(C)c3)CC2)cc1	-0.9%&1.5%	-1.2	-8%	-0.3%&-8.3%	1.5	1%[15.4 µM]	71µM*
COC(=O)C1=C(C(=O)OC)SC2(S1)C(C(=O)OC)=C(C(=O)OC)Sc1c2ssc1=O	-1.5%	-15	3%	1.7%	nt	3%	nt
COc1cc(C(=O)N2Cc3ccc(Br)cc3-n3nncc3C2)cc(OC)c1OC	1.1%	-1.6	nt	-0.4%	nt	nt	nt
Cc1cc(NC(=O)CCl)nn1C	-3.1%	-3.1	9%	-1.6%	-2.5	-6%[15.4 µM]	7%
CC(C)(C)NS(=O)(=O)c1ccc(OCC(=O)N2CCN(Cc3ccccc3)CC2)cc1	-0.3%	-1.4	-1%	nt	0.8	-4%[15.4 µM]	15%
COC(=O)C1=C(c2ccc(C(C)=O)cc2)C[C@@H]2CC[C@H]1N2C(=O)NCc1ccc(F)cc1	-1.0%	-3.1	-3%	-0.6%	nt	10%	nt
CCCNC(=O)N1[C@H]2CC[C@@H]1C(C(=O)OC)=C(c1ccc(OC)c(OC)c1)C2	-0.4%	-0.4	6%	-0.8%	nt	nt	nt
CC1(C)C2([N+](=O)[O-])CN3CN(C2)CC1([N+](=O)[O-])C3	-1.5%	-1.2	1%	nt	2.3	0%	14%
COc1ccc(NP(=O)(Oc2ccccc2OC)Oc2ccccc2OC)cc1	0.0%	12	-13%	nt	1.2	-9%[15.4 µM]	-10%
The list continues:
SMILES	PINK1 modulator	D2 agonist	gsp antag	ClpP mod	Menin MLL FP FL	gsp agonist	Sfp PPTase inh
Cc1ccc(/C=C2\C(=O)NC(=O)N(Cc3ccccc3Cl)C2=O)o1	7.2%	-0.8	7%	-0.1%	?	-1%	71µM*
CC(C)CCCn1c(O)c(/C=C2/C=CC=N2)c(=O)[nH]c1=O	5.3%	-3.6	9%	6.9%	29	19%	0%
CCCC(=O)OCC[N+](C)(C)C	0.5%	-3.8	0%	1.5%	-3.6	nt	18%&2%
O=C(c1ccc(F)c([N+](=O)[O-])c1)N1CC2CC(C1)c1cccc(=O)n1C2 (configuration not stated)	-1.3%	-2.9	-10%	2.2%	-1.0	6%	8%
Cc1cc(C(=O)OCC(=O)Nc2ccccc2F)c(C)n1C1CC1	-0.6%	-4.8	-23%	0.8%	nt	-9%[15.4 µM]	nt
COc1ccc(CC(=O)N2CCN(C)CC2)cc1OC	-1.5%[38.3 µM]	-3.0	0%	-0.1%	1.7	-22%	3%
CCC(NC(=O)OC(C)(C)C)C(=O)Oc1cc(C)cc2oc(=O)c3c(c12)CCC3 (configuration not stated)	-0.2%	-1.5	1%	3.0%	1.1	5%	1%
c1cc(CNCCc2ccc3c(c2)OCO3)ccn1	-1.4%	4.1	8%	-3.8%	-1.2	0%	-10%
OC(c1ccccc1)(c1ccccc1)c1ccncc1	0.0%	-2.4	3%	1.1%	0.1	-30%	9%
NC(=O)c1c(NC(=O)c2ccc(S(=O)(=O)N(CCCl)CCCl)cc2)sc2c1CCCCC2	6.2%	1.1	-4%	21%	3.8	-64%[inhibitor]	-4%
COc1ccc(CCNC2CCCCC2)cc1	-0.7%	-2.9	6%	0.5%	-2.2	-10%	20%
Cc1cc(/C=C2\C(=O)NC(=O)N(Cc3ccccc3)C2=O)c(C)n1C1CC1	2.5%	-0.9	-11%	nt	8.3	-29%[15.4 µM]	-7%
CC(C)c1ccc(N2C(=O)NC(=O)/C(=C\c3cnc(-c4ccccc4)nc3)C2=O)cc1	0.5%	-3.2	5%	-0.7%	?	-44%[inhibitor]	45µM*

Screening results from PubChem.

These rows are one share of the data. The share of hits here may be higher or lower than overall.
